From PubChem
LANA-H2A inh = blocks KSHV LANA binding to histone H2A/H2B. Q9QR71. cell-free LANA-H2A/H2B peptide, fluorescence polarization. inhibition, % (test concentration not listed). 0.6% of 320,000 active; in the data active = inhibition mostly above about 10%, no sharp cut-off; inactive = mostly below about 6.7%;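 note: stock transfer was 7.5 nL into about 10 µL; 0% = median of vehicle wells and 100% = median of positive control wells; one replicate is shown; the record names a cut of 25% in any replicate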
T cruzi repl = blocks replication of Trypanosoma cruzi; inhibition, % (test concentration not listed); AID 1885; T. cruzi beta-gal in NIH3T3, luminescence, 90 h; 1.4% of 300,000 active;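 active = mean inhibition across valid replicates above about 55%, limit read from the data; inconclusive = mean below that limit but half or more replicates reach it; inactive = mean below it, under half of replicates reach it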;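 note: signal also drops with host cell toxicity which is not excluded here; 0% = plate median of DMSO wells and 100% = zero luminescence signal; higher percent means less beta-gal luminescence so fewer parasites; stock transfer was 50 nL into about 50 µL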
Calb FLC = C. albicans growth modulation with fluconazole. C. albicans CaCi-2 (fluconazole-resistant clinical isolate) + fluconazole, Alamar Blue growth, 48 h. growth inhibition, % (concentration not given with the values). 0.57% of 300,000 active;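 active = most replicates above 75%; inconclusive = exactly half above 75%; inactive = most below 75%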;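 note: all wells also contain fluconazole at 8 µg/ml as a sub-toxic cotreatment; 0% = median of DMSO wells and 100% = median of geldanamycin control wells; wells of about 8 µL received 7.5 nL stock; the first replicate is given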
B2AR ag = agonists of human beta-2 adrenergic receptor inducing internalization; P07550; Am2.2-beta2AR cells, FAP receptor internalization, flow cytometry; reference of the scale not given here; response, % (test concentration not listed); 0.43% of 340,000 active; AID 504454;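 active = response above a set limit, near 3 SD of response in nonfluorescent compounds, cut at about 42% in these data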;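 note: stock transfer was 100 nL into about 11 µL; a reference agonist was the positive control; negative values mostly stem from fluorescent compounds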
Target sequence (P07550 whole entry, looked up): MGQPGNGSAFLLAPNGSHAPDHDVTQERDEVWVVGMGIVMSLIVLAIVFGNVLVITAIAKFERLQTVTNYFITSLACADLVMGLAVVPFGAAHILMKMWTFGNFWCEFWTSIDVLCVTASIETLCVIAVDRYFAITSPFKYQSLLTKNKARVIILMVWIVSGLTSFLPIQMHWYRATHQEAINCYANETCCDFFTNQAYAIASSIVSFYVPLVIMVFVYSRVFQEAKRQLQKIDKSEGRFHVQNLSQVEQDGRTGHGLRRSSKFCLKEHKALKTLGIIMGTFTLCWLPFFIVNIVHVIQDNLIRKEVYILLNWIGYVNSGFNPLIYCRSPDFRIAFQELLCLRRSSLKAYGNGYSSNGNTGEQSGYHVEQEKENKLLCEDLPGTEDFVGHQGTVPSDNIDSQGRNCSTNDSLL
Bfl-1 A1 inh = inhibitors of the anti-apoptotic protein A1, read as caspase activation | caspase activation, % (no concentration beside the values) | 0.066% of 330,000 active | MEF A1-2A-BIM cells, Caspase-Glo 3/7 luminescence, 3 h; percent of clofoctol response, vehicle zero;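 active = over half of replicate activation scores above 10%, or exactly half above 10 with the replicate mean above 10; inconclusive = replicate mean below 10 yet half the replicates above 10; inactive = over half of replicates below 10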;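 note: wells of about 30 µL received 50 nL stock; many hits fall short of the cut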
Beta apoptosis = beta cell apoptosis inhibition; 0.8% of 300,000 active; INS-1E cytokine-induced death, ATP luminescence, 48 h; percent of positive-control rescue, neutral wells zero; protection from apoptosis, % (concentration not given with the values);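 active = all replicates at 75% or more, or half of them and the mean; inconclusive = half reach 75% but not the mean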;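 note: 0% = cytokine-treated negative control wells and 100% = positive control rescue; higher means more ATP so stronger rescue from cytokine killing; wells of about 40 µL received 100 nL stock; the first replicate is given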
ALR H2O2 inh = blocks human ALR sulfhydryl oxidase activity. P55789. purified ALR, DTT oxidation, H2O2 HRP-luminol luminescence. inhibition, % (no concentration beside the values). 3.8% of 290,000 active. AID 485317;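 active = mean and each replicate at 75% or more; inconclusive = only one of the two met; inactive = neither met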;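 note: stock transfer was 7.5 nL into about 7.5 µL; 0% = neutral wells and 100% = wells with inactivated enzyme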
Target sequence (P55789 whole entry, looked up): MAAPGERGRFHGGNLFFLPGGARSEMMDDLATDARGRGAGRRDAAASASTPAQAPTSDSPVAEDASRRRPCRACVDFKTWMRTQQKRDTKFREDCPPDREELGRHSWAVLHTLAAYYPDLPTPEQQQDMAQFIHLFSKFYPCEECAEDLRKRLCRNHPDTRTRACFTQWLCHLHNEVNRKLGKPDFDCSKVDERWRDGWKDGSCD
rRNA inh HTS = selective bacterial rRNA inhibition in E. coli. GFP signal change (wild-type ribosome), % (concentration not given with the values). E. coli WT GFP vs humanized-ribosome RFP mutants, fluorescence, 24 h; stronger effect = lower value; DMSO median 0, no signal -100. AID 720706. 1.6% of 350,000 active;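 active = significant combined selectivity score with lowered wild-type GFP, culture density cut under 30%, mutant RFP and density less affected; inactive = any of these conditions unmet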; note: one replicate is shown; some compounds called inactive have numbers as strong as hits
rRNA inh HTS OD600 = recorded beside rRNA inh HTS, whose call it bears; OD600 change, %; measured here: OD600 growth;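 optical density of the mix in the first replicate; 0 = DMSO median and -100 = no signal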
rRNA inh HTS RFP = further read-out of rRNA inh HTS, marked with its call; RFP signal change, %; measured here: RFP humanized mutant strains;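 first replicate; 0 = DMSO median and -100 = no signal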
Numbers without * were called inactive; ? = inconclusive; / = no result given. Not all compounds are listed; rates above refer to the full screens.

SMILES	LANA-H2A inh	T cruzi repl	Calb FLC	B2AR ag	Bfl-1 A1 inh	Beta apoptosis	ALR H2O2 inh	rRNA inh HTS	rRNA inh HTS OD600	rRNA inh HTS RFP
CCOC(=O)C1=NOC2COC3(CCN(c4ncccn4)CC3)OCC12 (centres undefined)	2.6	2	-8	8	-0.1	-20	-4	4	0	1.4
Cc1ccc(O)c(CNc2cccc(C)n2)c1	/	1	3	0	/	/	/	-1	0	-1.4
CC(C)(C)NC(=O)CN(C(=O)CS(=O)CC(=O)Nc1ccc(F)cc1)c1ccc2c(c1)OCCO2 (centres undefined)	0.8	4	5	15	0.2	0	0	5	-2	-7.0
Cc1ccccc1CSCC(Nc1ccc(C(=O)O)cc1[N+](=O)[O-])C(=O)O (centres undefined)	-1.0	-3	15	4	0.5	7	-64	/	/	/
Cc1cc(C(=O)Nc2c(F)c(F)c(F)c(F)c2F)n(-c2ccccc2)n1	0.6	7	-4	-6	0.5	1	-3	-11	-13	-1.6
CCCCc1nc(C(N)=O)c2[nH]c(=O)n(-c3ccccc3F)c2n1	-5.5	-14	-2	1	1.2	-8	8	7	7	-0.8
CCOc1ccccc1C(=O)N[C@H](C(=O)Nc1ccc(OC)c(S(=O)(=O)N2CCOCC2)c1)C(C)C	-3.0	/	5	-7	-0.5	3	-8	-31	-29	-5.9
CCc1cc2c(NCC3CCCO3)nc(C)nc2s1 (centres undefined)	0.1	4	0	1	1.6	7	-4	/	/	/
CCn1c2ccccc2c2cc(NC(=O)CSc3nnc(-c4cccc(C)c4)o3)ccc21	-0.1	-3	-8	7	0.4	0	-3	/	/	/
O=C(CN1CCCCCC1)N/N=C/c1cccc(Cl)c1Cl	-3.0	-7	-9	0	-0.4	1	-31	/	/	/
Cc1ccc(NC(=O)CCC(=O)c2cccs2)c(Br)c1	6.6	8	10	-5	0.6	-3	4	-3	-9	-1.3
CC(=O)N1c2ccc(S(=O)(=O)NCC3CCC(C(=O)Nc4ccc(C)cn4)CC3)cc2CC1C (centres undefined)	-4.3	19	31	-10	-0.4	22	2	-2	-10	0.7
CCCOc1ccc(N2CC(C(=O)Nc3ccc(N4CCOCC4)cc3)CC2=O)cc1 (centres undefined)	11	4	17	5	0.4	3	-14	/	/	/
Cc1cccc(C(=O)N/N=C/c2ccc3c(c2)OCO3)n1	-3.9	-3	14	-2	1.0	-14	-2	/	/	/
O=C(c1cccs1)N1CCN(c2ncc(C(F)(F)F)cc2Cl)CC1	3.4	14	0	-11	0.1	-3	-6	-37	-48	-9.8
CCOC(=O)c1ccc(N2C(=O)c3n[nH]c(C)c3C2c2ccc(O)cc2)cc1 (centres undefined)	-1.6	0	7	-10	-0.4	-5	6	/	/	/
CN(C)CCOc1ccc(-c2c(-c3ccsc3)sc3ccccc23)cc1	1.4	/	/	19	2.9	1	-16	-11	-1	15
N#Cc1cccc(NC(=O)CC2CCCC2)c1	1.9	6	-13	9	-0.3	-1	-5	1	7	-0.3
COc1ccc(OC)c(-c2csc(N(CC3CCCO3)C(=O)C3CCCCC3)n2)c1 (centres undefined)	-3.6	29	-19	0	1.7	3	-2	21	15	-0.9
Cn1c(=O)c2c(SCc3cccnc3)nc(C3CC3)nc2n(C)c1=O	-5.2	9	-1	-11	-6.6	12	-15	-2	1	-2.5
O=C(NC1CCN(C(=O)Nc2cccc(Cl)c2)CC1)c1ccccc1	3.6	-1	2	12	0.2	8	3	-2	5	-1.0
CCOC(=O)C1CCCCN1Cc1ccc(OC)c(OC)c1OC (centres undefined)	2.7	3	-12	-3	-0.2	1	-6	/	/	/
O=C(Nc1ccccc1C(=O)O)c1ccccc1	3.5	6	19	3	-6.7	2	/	/	/	/
CCOC(=O)C1=C(N)n2c(s/c(=C\c3ccncc3)c2=O)=C(C(=O)OCC)C1c1ccncc1 (centres undefined)	0.8	6	-1	-7	0.3	3	-8	14	8	-0.5
CCC(C(=O)O/N=C(\N)c1ccccc1)c1ccccc1 (centres undefined)	-3.3	13	18	4	0.4	/	-6	/	/	/
Cc1onc(-c2ccccc2)c1C(=O)OCc1nnc(-c2ccc([N+](=O)[O-])cc2)o1	3.5	/	/	-7	-1.8	-9	-6	-19	-26	-4.9
CN1CCN(CCc2nc3cc(NC(=O)c4ccco4)ccc3n2C)CC1	2.3	-4	7	21	1.0	/	-16	1	5	-0.6
CCCn1c(SCC(=O)c2cc(C)ccc2C)n[nH]c1=O	-1.0	-15	-9	-5	0.4	-1	-2	/	/	/
CCC1CCC(N2CCN(c3cccc(OC)c3)CC2)CC1 (centres undefined)	-2.9	5	-2	4	0.1	1	16	3	-4	1.9
Cc1ccc(N2CN(Cc3ccco3)CNC2=S)cc1	2.8	-29	-11	3	1.9	-6	0	12	4	0.2
Cc1ccc(C)c(N(C(=O)Cn2nnc3ccccc32)C(C(=O)NCc2ccco2)c2ccncc2)c1 (centres undefined)	3.0	-8	-5	2	-0.4	-4	-8	/	/	/
S=c1[nH]c2cc(Cl)c3cccnc3c2o1	0.6	-7	79*	6	1.4	-7	-23	-12	-22	-11
CCOc1ccc(N(CC(=O)Nc2ccc(C)c(C)c2)S(C)(=O)=O)cc1	-2.2	7	23	-10	-0.3	5	/	-13	-7	3.7
O=C(CCCn1c(=S)[nH]c2ccccc2c1=O)NCCSCc1ccccc1	-4.5	7	0	-15	0.2	3	28	-7	-8	7.5
Cc1ccc2oc(=O)c3cnn(CC(=O)N(Cc4ccco4)C4CCCCC4)c3c2c1	5.3	11	5	2	0.0	-2	-10	1	3	-9.3
O=C(c1ccccc1F)N1CCN(CC2CC3C=CC2C3)CC1 (centres undefined)	0.3	5	-5	9	0.7	-6	-6	/	/	/
CC(C)CC(=O)NCc1ccc2[nH]c3c(c2c1)CCCC3	-8.1	4	119*	1	0.9	-4	22	13	1	2.0
CCOc1ccc(OCC)c(NC(=O)CN(C)S(=O)(=O)c2ccc3nc(C)sc3c2)c1	-3.4	-5	13	-16	-0.6	3	-17	/	/	/
COc1ccc(CCNC(=O)c2ccco2)cc1	-0.7	/	-12	6	-0.1	2	2	/	/	/
COc1cc(/C=N/Nc2cccc3cccnc23)cc(OC)c1O	-5.0	-2	-14	4	1.1	16	36	-26*	-15*	-2.3*

Given in markdown: part of the list above.
| SMILES | LANA-H2A inh | T cruzi repl | Calb FLC | B2AR ag | Bfl-1 A1 inh | Beta apoptosis | ALR H2O2 inh | rRNA inh HTS | rRNA inh HTS OD600 | rRNA inh HTS RFP |
| --- | --- | --- | --- | --- | --- | --- | --- | --- | --- | --- |
| CCOc1ccc(OCC)c(NC(=O)CN(C)S(=O)(=O)c2ccc3nc(C)sc3c2)c1 | -3.4 | -5 | 13 | -16 | -0.6 | 3 | -17 | / | / | / |
| COc1ccc(CCNC(=O)c2ccco2)cc1 | -0.7 | / | -12 | 6 | -0.1 | 2 | 2 | / | / | / |

(more compounds)
SMILES	LANA-H2A inh	T cruzi repl	Calb FLC	B2AR ag	Bfl-1 A1 inh	Beta apoptosis	ALR H2O2 inh	rRNA inh HTS	rRNA inh HTS OD600	rRNA inh HTS RFP
COc1ccccc1NC(=O)C(=O)N(c1cccnc1)C(C(=O)NC(C)(C)C)c1ccccc1 (centres undefined)	1.5	1	-2	-1	0.3	-3	-3	12	8	-4.3
O=C(c1cccc(S(=O)(=O)N2CCCCC2)c1)N1CCN(S(=O)(=O)c2ccc(F)cc2)CC1	-1.7	14	1	6	0.3	-1	-8	/	/	/
OCOCCCn1c(C2CCCN2c2nc(-c3ccc(F)cc3)cs2)nc2cc(Cl)c(N3CCCCC3)cc21 (centres undefined)	1.8	-3	24	0	1.0	3	-2	3	7	1.0
CC(=O)Nc1ccc(S(=O)(=O)NNC(=O)c2ccc(S(=O)(=O)N3CCCCC3)cc2)cc1	3.1	-17	-11	1	0.5	0	26	/	/	/
CCOc1ccc(NC(=S)N2CCN(S(=O)(=O)c3ccccc3)CC2)cc1	3.3	/	-12	2	0.6	1	1	-4	-7	1.7
Cn1cc(Br)c(NS(=O)(=O)c2ccc(Cl)s2)n1	2.1	5	-5	-5	-0.5	-6	-7	6	2	1.1
Cc1cc(NC(=O)c2ccc(COc3ccc(Cl)c(C)c3)o2)no1	3.5	-12	-2	1	0.9	5	-13	/	/	/
O=C(CCCCCN1C(=O)c2cccc3cccc(c23)C1=O)NCc1cccnc1	-5.9	3	2	-8	0.2	24	-24	6	-14	-2.9
Cc1ccccc1-c1n[nH]c(=S)n1/N=C/C=C/c1ccco1	2.1	0	0	11	0.4	1	38	11	11	6.1
COc1cc2nc(Cl)nc(N3CCOCC3)c2cc1OC	-3.5	22	6	-3	0.3	10	-14	12	-4	-3.7
CCN(CC)S(=O)(=O)c1cc(NC(=O)CCCOc2ccc(C(C)=O)cc2)ccc1C	-1.9	-2	28	6	1.3	-5	-6	-21	-9	16
CC1(C)CC(N(Cc2cccs2)C(=O)c2ccco2)CCO1 (centres undefined)	-7.9	8	-1	-2	-0.2	-6	-3	/	/	/
COc1ccc(CCNC(=O)c2ccc(=O)[nH]c2)cc1OC	-2.8	-10	/	-9	0.9	-5	21	1	15	-0.1
COc1ccc(NC(=O)C(=O)N/N=C(\C)CC(=O)Nc2ccccn2)c(OC)c1	2.7	2	-2	-6	-0.1	0	15	-1	8	0.1
Cc1nnc(-c2ccc(Cl)cc2)nc1NCCN(C)C	-6.5	23	?	22	-0.5	-3	18	17	9	0.4
CCCNC(=O)CCc1c(C)nc2nc(C)nn2c1C	0.6	-2	17	25	0.0	-5	-1	17	9	2.0
CCN(CC)C(=O)C1CCCN(Cc2ccc(OC)c(C)c2)C1 (centres undefined)	-1.5	45	-9	1	-0.7	-2	5	/	/	/
CCC1CCCCN1CCCNC(=O)C1CCC(=O)N1Cc1ccc(C)cc1 (centres undefined)	-2.3	-10	5	-3	0.4	-2	-7	/	/	/
COC(=O)c1scc(C)c1N/N=C(\C)c1ccc(F)cc1F	-0.7	4	-3	11	0.8	7	-1	/	/	/
CCCCS(=O)CC(COCc1ccccc1)OC(=O)CSc1nc(C)cc(C)n1 (centres undefined)	5.6	-6	5	0	0.8	-11	-3	/	/	/
CC(OC(=O)/C=C/c1cccs1)C(=O)Nc1ccc(C(N)=O)cc1 (centres undefined)	4.3	/	/	-6	-0.3	-10	-8	2	6	-3.5
CC(=O)CSc1ncnc2nc[nH]c12	0.8	-2	0	1	0.3	-8	21	/	/	/
O=[N+]([O-])c1cccc(S(=O)(=O)N2CCC(c3nc(-c4ccncc4)no3)CC2)c1	2.8	61*	-2	14	-0.1	-5	-15	14	8	-1.2
O=S(=O)(c1ccc2ccccc2c1)n1cccn1	1.5	1	6	-4	0.1	-2	-4	7	7	0.7
CCn1ccnc1CN(C)C(=O)C1CCC(=O)N(Cc2cccc(C(F)(F)F)c2)C1 (centres undefined)	4.4	-6	-2	5	1.0	1	-1	14	17	2.9
Cc1cc([N+](=O)[O-])nn1CC(=O)Nc1nc2ccccc2s1	-2.0	-16	-3	1	0.8	-7	4	1	-14	-3.3
COC(=O)c1ccc(Oc2cc(C)nc(-n3nc(C)cc3C)n2)cc1	-4.0	-10	-6	6	0.1	17	-23	/	/	/
